FGF22 binding: binders of recombinant human FGF22 by thermal shift | Q9HCT0 | SYPRO orange fluorescence; percent of sucrose octasulfate shift, DMSO zero | calls only at 9.99 µM | hit rate 1.5% among 340,000 | AID 651658;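 active = melting point raised past a set limit in the mean and every replicate; inconclusive = no clear call; three in four hits are not shown here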
Target sequence (Q9HCT0 whole entry, looked up): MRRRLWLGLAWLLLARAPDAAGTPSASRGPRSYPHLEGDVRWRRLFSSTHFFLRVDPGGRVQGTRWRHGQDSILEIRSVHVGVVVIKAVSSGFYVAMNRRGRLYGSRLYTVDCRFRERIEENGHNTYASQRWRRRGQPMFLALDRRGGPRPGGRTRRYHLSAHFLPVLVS
ALR H2O2 inh: blocks human ALR sulfhydryl oxidase activity; P55789; purified ALR, DTT oxidation, H2O2 HRP-luminol luminescence; inhibition, % (test concentration not listed); hit rate 3.8% among 290,000;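 active = mean and each replicate at 75% or more; inconclusive = only one of the two met; inactive = neither met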;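 note: stock transfer was 7.5 nL into about 7.5 µL; 0% = neutral wells and 100% = wells with inactivated enzyme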
Target sequence (P55789 whole entry, looked up): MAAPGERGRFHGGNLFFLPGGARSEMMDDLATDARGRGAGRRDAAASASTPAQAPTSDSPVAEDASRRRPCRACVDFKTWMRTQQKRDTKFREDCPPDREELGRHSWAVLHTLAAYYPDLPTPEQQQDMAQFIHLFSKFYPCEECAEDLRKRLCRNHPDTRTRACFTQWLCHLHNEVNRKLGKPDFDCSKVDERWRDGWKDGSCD
Beta cell apopt: blocks beta cell apoptosis; INS-1E cytokine-induced death, ATP luminescence, 48 h; percent of positive-control rescue, neutral wells zero; protection from apoptosis, % (concentration not given with the values); hit rate 0.8% among 300,000; AID 435005;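 active = all replicates at 75% or more, or half of them and the mean; inconclusive = half reach 75% but not the mean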;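 note: 0% = cytokine-treated negative control wells and 100% = positive control rescue; higher means more ATP so stronger rescue from cytokine killing; wells of about 40 µL received 100 nL stock; the first replicate is given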
AF4-AF9 inh: MLL-AF4/AF9 protein interaction inhibition | AlphaScreen, biotin-AF4 peptide binding to FLAG-AF9 | inhibition, % at 10 µM | hit rate 0.47% among 350,000 | AID 651704;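 active = every replicate reaching a set inhibition limit, whatever the replicate mean, cut at about 25% in these data; inconclusive = mean inhibition reaches that limit but some replicates miss it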;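 note: 0% = plate neutral control median and 100% = total signal loss; the record names both 10 and 1 µM as test concentration; the first replicate is given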
Target sequence (P42568 whole entry, looked up): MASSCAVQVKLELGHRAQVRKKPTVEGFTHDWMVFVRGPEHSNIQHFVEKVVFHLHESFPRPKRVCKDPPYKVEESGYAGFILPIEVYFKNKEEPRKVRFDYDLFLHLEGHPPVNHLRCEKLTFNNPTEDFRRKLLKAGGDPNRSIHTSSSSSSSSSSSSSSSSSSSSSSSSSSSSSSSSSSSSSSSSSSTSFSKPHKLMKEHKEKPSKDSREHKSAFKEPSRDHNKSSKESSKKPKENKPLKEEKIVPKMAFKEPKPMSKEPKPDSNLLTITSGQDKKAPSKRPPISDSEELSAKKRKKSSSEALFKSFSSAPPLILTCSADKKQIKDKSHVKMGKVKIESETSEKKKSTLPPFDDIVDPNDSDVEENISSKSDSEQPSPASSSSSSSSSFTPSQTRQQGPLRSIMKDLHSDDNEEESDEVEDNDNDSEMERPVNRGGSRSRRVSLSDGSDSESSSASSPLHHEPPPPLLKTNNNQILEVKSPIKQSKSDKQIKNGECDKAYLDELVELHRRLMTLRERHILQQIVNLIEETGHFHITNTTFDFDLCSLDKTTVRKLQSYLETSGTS
rRNA inh HTS: inhibitors of bacterial rRNA selective over humanized ribosomes; E. coli WT GFP vs humanized-ribosome RFP mutants, fluorescence, 24 h; active compounds read low; DMSO median 0, no signal -100; GFP signal change (wild-type ribosome), % (no concentration beside the values); hit rate 1.6% among 350,000; AID 720706;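 active = significant combined selectivity score with lowered wild-type GFP, culture density cut under 30%, mutant RFP and density less affected; inactive = any of these conditions unmet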; note: one replicate is shown; some compounds called inactive have numbers as strong as hits
Calb FLC: C. albicans growth modulation with fluconazole; C. albicans CaCi-2 (fluconazole-resistant clinical isolate) + fluconazole, Alamar Blue growth, 48 h; hit rate 0.57% among 300,000; growth inhibition, % (test concentration not listed);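 active = most replicates above 75%; inconclusive = exactly half above 75%; inactive = most below 75%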;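 note: all wells also contain fluconazole at 8 µg/ml as a sub-toxic cotreatment; 0% = median of DMSO wells and 100% = median of geldanamycin control wells; wells of about 8 µL received 7.5 nL stock; the first replicate is given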
T cruzi repl: T. cruzi replication inhibition | inhibition, % (test concentration not listed) | T. cruzi beta-gal in NIH3T3, luminescence, 90 h | hit rate 1.4% among 300,000 | AID 1885;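 active = mean inhibition across valid replicates above about 55%, limit read from the data; inconclusive = mean below that limit but half or more replicates reach it; inactive = mean below it, under half of replicates reach it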;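 note: signal also drops with host cell toxicity which is not excluded here; 0% = plate median of DMSO wells and 100% = zero luminescence signal; higher percent means less beta-gal luminescence so fewer parasites; stock transfer was 50 nL into about 50 µL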
RanGTP-Impb inh: inhibitors of RanGTP-importin-beta interaction, primary screen, biochemical, FRET, CFP-Ran, YFP-importin-beta, homogeneous; AID 2216; cell-free CFP-Ran/YFP-importin-beta FRET ratio; inhibition, % (test concentration not listed); hit rate 1.1% among 300,000;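 active = most replicates above 15%; inconclusive = exactly half above 15%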;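 note: 0% = DMSO wells and 100% = Ran loaded with GDP instead of GTP; wells of about 40 µL received 100 nL stock; the first replicate is given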
rRNA inh HTS OD600: also measured in rRNA inh HTS; calls as there; OD600 change, %; measured here: OD600 growth;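 optical density of the mix in the first replicate; 0 = DMSO median and -100 = no signal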
rRNA inh HTS RFP: also measured in rRNA inh HTS; calls as there; RFP signal change, %; measured here: RFP humanized mutant strains;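 first replicate; 0 = DMSO median and -100 = no signal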
Active calls of the source: *; i = inactive; ? = inconclusive; / = no result given.

Every second line gives: rRNA inh HTS RFP	Calb FLC	rRNA inh HTS OD600	Beta cell apopt	T cruzi repl	rRNA inh HTS	ALR H2O2 inh	RanGTP-Impb inh	FGF22 binding	AF4-AF9 inh
1. COc1ccccc1CNC(=O)Cc1ccccc1
  -1.6	-1	14	-1	-3	15	-13	-0.2	i	-6.0
2. O=C(NCCCCc1ccccc1)c1ccc(Br)cc1
  2.2	7	2	2	5	6	-3	-1.6	i	-0.5
3. CCCC(=NCc1ccccc1)C1=C(O)C(C(=O)OC)C(C)(C)CC1=O (stereo not given)
  3.9	-3	-8	-1	0	3	-3	-1.9	i	6.9
4. COc1ccc(-c2nc3nc(C)cc(=O)n3[nH]2)cc1
  0.3	4	5	-4	-7	9	/	5.9	/	/
5. CC(=O)Nc1cccc(C(=O)OCC(=O)NC(C)c2ccc(F)cc2)c1 (stereo not given)
  0.5	0	17	-5	-14	12	1	-0.6	i	-4.0
6. Clc1ccc(-c2csc(N/N=C/c3cccnc3)n2)c(Cl)c1
  /	2	/	-1	52	/	11	?	/	/
7. Cc1ccc2oc3nc(C)c(C(=O)Nc4cccc(C(F)(F)F)c4)cc3c(=O)c2c1
  /	-2	/	0	9	/	-11	6.9	/	/
8. Cc1nn(C)cc1CNC(=O)Nc1cccc(Cl)c1
  /	-10	/	6	-15	/	-4	5.6	/	/
9. O=C(CSc1nnc(-c2ccc(OC(F)F)cc2)o1)N1CCOCC1
  /	-3	/	1	-4	/	-6	5.7	/	/
10. C/C(=N\N1CCN(c2ccccc2)CC1)c1cccs1
  1.4	-4	2	6	1	15	/	-0.5	i	?
11. CCOC(=O)c1[nH]c2ccccc2c1NC(=O)Nc1ccc(OC)cc1
  /	4	/	-3	2	/	-9	0.2	/	/
12. Cc1cc(C(=O)CSc2nnc(-c3ccncc3)n2-c2ccccc2)c(C)n1C
  /	-5	/	4	-9	/	17	2.6	/	/
13. COc1ccc(NC(=O)CSc2nnc(C)c3ccccc23)cc1
  0.8	0	-8	-4	2	-1	99*	-2.2	i	2.6
14. CCOc1ccc(NC(=O)C(C)Oc2ccccc2C(=O)Nc2ccc(C)c(Cl)c2)cc1 (stereo not given)
  /	22	/	3	72*	/	-7	-4.2	/	/
15. N#Cc1nc(Cc2cccc3ccccc23)oc1N1CCOCC1
  -12	3	-45	4	-3	-36	-66	0.1	i	18
16. CN(C(=O)c1ccc(-c2nn(C)c(=O)c3ccccc23)cc1)c1ccccc1
  /	10	/	5	6	/	-12	?	/	/
17. O=C(NC(Cc1c[nH]c2ccccc12)c1nnc2n1CCCCC2)c1ccc(Cl)cc1 (stereo not given)
  /	3	/	-1	3	/	-4	-0.7	/	/
18. CCCCNC(=O)COc1ccccc1[N+](=O)[O-]
  /	12	/	-8	-19	/	-2	-1.4	/	/
19. CC(=O)c1cccc(NC(=S)NC(=O)c2ccccc2Br)c1
  -0.6	-1	-2	1	2	0	0	?	i	-8.6
20. COC(=O)C(C)(C)ONC(=O)Nc1ccccc1Br
  13	9	3	4	4	8	-1	-0.8	i	0.4
21. CN1c2ccc(Cl)cc2C(=O)NC1c1ccc([N+](=O)[O-])s1 (stereo not given)
  -19	-4	-81	-21	43	-57	-11	-1.8	i	3.6
22. CC(=O)N1CCc2c(sc(NC(=O)CCS(=O)(=O)c3ccccc3)c2C#N)C1
  -1.6	25	4	13	9	6	14	2.6	i	-1.3
23. O=C(COC(=O)c1cccc(Cl)c1)NC1CCCCCCC1
  7.6	/	0	2	/	-10	-3	/	i	-8.8
24. CCCOC(=O)c1ccc(NC(=O)COC)cc1
  /	31	/	0	-19	/	-1	0.6	/	/
25. NS(=O)(=O)c1ccc(NC(=S)NCC2CCCO2)cc1 (stereo not given)
  0.2	-2	-3	-6	-4	-1	1	5.3	i	-7.4
26. O=C(NC1(C(F)(F)F)NC(=O)N(C2CCCCC2)C1=O)C1CC1 (stereo not given)
  1.6	-4	3	-5	-12	13	13	-0.2	i	-1.8
27. Cc1cnc(CN(C)Cc2c(C(=O)N3CCc4ccccc4C3)nc3ccc(Cl)cn23)[nH]1
  -0.3	-7	4	0	31	11	-8	-3.4	i	3.3
28. CCCC1=Nc2cc(C(=O)NCCN3CCOCC3)ccc2Sc2ccc(C)cc21
  -4.6	-2	-37	-7	17	-34	-3	5.2	i	10
29. CC(C)CNC(=O)COC(=O)c1n[nH]c2ccccc12
  -0.1	16	1	-7	-9	5	-6	-5.1	i	-3.0
30. Cc1c(Cl)cnc(NC(=O)COC(=O)c2ccc([N+](=O)[O-])s2)c1Cl
  3.0	4	12	-4	7	14	/	0.5	i	-1.1
31. COc1cccc(OC)c1C(=O)Nc1ccccc1N1CCCCC1
  -8.2	53	-38	-3	2	-34	16	?	i	1.1
32. COC(=O)c1ccccc1OCC(=O)N1CCN(c2ccc(Cl)cc2)CC1
  /	-3	/	5	-3	/	43	-1.4	/	/
33. CCCCNS(=O)(=O)c1ccc2nc(SCC(=O)Nc3cc(C)cc(C)c3)[nH]c2c1
  /	-9	/	/	4	/	-10	0.6	/	/
34. CCOc1ccc(-c2cc3nc(C4CCN(C(=O)OC(C)(C)C)CC4)c(C(=O)O)cn3n2)cc1
  /	4	/	-16	-15	/	98*	-0.2	/	/
35. O=C1NC(c2ccc(-c3ccccc3[N+](=O)[O-])o2)C(C(=O)c2ccc(Cl)cc2)C(O)(C(F)(F)F)N1 (stereo not given)
  /	47	/	-1	8	/	-44	3.4	/	/
36. COc1cc(SC)ccc1C(=O)Nc1ccc(OCC(=O)N2CCOCC2)cc1
  -0.8	-4	-1	/	-1	-5	/	-4.1	i	0.2
37. COc1ccc(/C=C2\SC(=S)N(CC(=O)N3CCN(C)CC3)C2=O)cc1
  5.6	-35	-6	-31	22	3	-4	9.2	i	-1.3
38. Cc1cc(C)cc(SCc2noc(C(=O)NCCCN3CCOCC3)c2C(=O)NCCCN2CCOCC2)c1
  13	13	-5	1	6	-2	/	0.9	i	2.6
39. O=C(CCCn1c(=O)[nH]c2cc(Cl)ccc2c1=O)NCCCN1CCN(c2ccc(F)cc2)CC1
  -5.3	3	-7	-6	1	5	25	2.5	/	13
40. Cc1cc(N2CCOCC2)n2ncc(-c3ccc(Cl)cc3)c2n1
  /	13	/	-2	/	/	-2	0.7	i	-4.0
41. COC(=O)c1ccsc1NC(=O)c1ccccc1
  -0.6	5	-3	/	-9	3	-3	4.4	i	3.0
42. CCS(=O)(=O)N1CCN(c2ccc(C(=O)NC3C4CC5CC(C4)CC3C5)cc2[N+](=O)[O-])CC1 (stereo not given)
  /	-1	/	61	68*	/	-12	4.7	/	/
43. O=C(O)/C=C/C(=O)NC1CCCCC1
  -3.0	-5	6	-5	-27	16	-8	?	i	6.9
44. COc1cc(C(=O)Nc2ccc(NC(=O)c3ccccc3)nc2)cc(OC)c1OC
  4.3	2	-3	8	11	-14	/	6.2	i	-1.1
45. O=C(NCCc1ccccc1F)C1CCCN1S(=O)(=O)c1ccc2ccccc2c1 (stereo not given)
  /	6	/	-5	75*	/	-8	-3.3	/	/
46. COC(=O)C1=C(C)Nc2nnnn2C1c1cccnc1 (stereo not given)
  /	6	/	1	6	/	-4	4.2	/	/
47. CCc1ccccc1NC(=O)c1cc(S(=O)(=O)N(C)C)ccc1N1CCCC1
  -1.0	-9	2	2	12	4	-2	2.9	i	-0.3
48. COC(=O)C(CCCCN1C(=O)C2C3C=CC(C3)C2C1=O)N1C(=O)C2C3C=CC(C3)C2C1=O (stereo not given)
  /	9	/	1	-10	/	-19	0.9	/	/
49. O=C(COC(=O)c1ccc(Br)o1)NCCNC(=O)COC(=O)c1ccc(Br)o1
  -1.1	-8	3	/	7	8	-4	4.7	i	1.2
50. CC1=NN(c2ccccc2)C(=O)/C1=C/c1c(O)n(-c2ccc(F)c(Cl)c2)[nH]c1=O
  /	5	/	1	-3	/	42	8.2	/	/
51. Cc1cc(=O)oc2c(C)c(OCC(=O)Nc3cccnc3)ccc12
  0.1	-2	-3	-3	-20	-7	-1	0.3	i	-1.4
52. CC(C)OC(=O)C1=C2SCC(=O)N2C(N)=C(C#N)C1
  /	-1	/	-3	-8	/	/	3.9	/	/
53. CCOC(=O)c1ccccc1N/C=C/C(=O)c1ccccc1
  /	2	/	7	5	/	4	-0.6	/	/
54. CCCN(CCC)C(=O)Cn1c(=O)c2ccccc2n2c(=S)sc(-c3ccccc3C)c12
  /	0	/	1	49	/	32	-24	/	/
55. COc1ccc2oc(=O)c(C(=O)N3CCCc4ccccc43)cc2c1
  /	-4	/	-4	-5	/	0	6.4	/	/
56. O=C(NCCCn1ccnc1)C(Cc1ccccc1)N1C(=O)c2ccccc2C1=O (stereo not given)
  /	2	/	4	-15	/	6	-2.9	/	/
57. CCOC(=O)N1CCN(S(=O)(=O)c2ccc(Cl)cc2)CC1
  6.1	5	9	-8	2	11	-6	2.8	i	-3.8
58. O=C(/C=C/c1ccc(F)cc1)Nc1cccc(S(=O)(=O)N2CCOCC2)c1
  -2.0	/	-20	3	/	-21	-10	/	i	3.3
59. Cc1cc(N2CCOCC2)nc2ccc(NC(=O)CCC(=O)N3CCCC(C)C3)cc12 (stereo not given)
  /	2	/	5	1	/	-8	-1.7	/	/
60. COc1ccccc1OCCSc1nc2ccccc2n1CCO
  -0.3	-12	0	/	-5	7	-5	-1.7	i	-2.1

The results go on.
Every second line gives: rRNA inh HTS RFP	Calb FLC	rRNA inh HTS OD600	Beta cell apopt	T cruzi repl	rRNA inh HTS	ALR H2O2 inh	RanGTP-Impb inh	FGF22 binding	AF4-AF9 inh
61. CCc1cccc(CC)c1NC(=O)CN1CCN(c2ccccc2)CC1
  /	19	/	-4	-7	/	65	4.0	/	/
62. Cc1cc[n+](CCC(=O)O)c2ccccc12
  /	-4	/	-6	-2	/	-15	6.8	/	/
63. Cc1nc2c(-c3ccccc3)cnn2c(N2CCOCC2)c1C
  -2.2	6	-4	-5	10	0	5	0.7	i	-5.1
64. C=CCNC(=S)N1CCN(CCN=CC2=C(O)CC(c3ccc(Cl)cc3)CC2=O)CC1 (stereo not given)
  0.6	12	0	2	-5	-7	-7	6.6	i	-0.5
65. CCCC(=O)Nc1nnc(S(=O)(=O)N2CCCC2)s1
  0.8	3	16	-6	6	7	-6	6.8	i	3.2
66. Cc1noc(C)c1CSc1nnc(-c2ccccc2)o1
  1.1	0	-7	-1	-4	3	16	1.4	i	3.9
67. Cc1cccc(OCc2nnc(SCC(=O)N3c4ccccc4CC3C)n2C)c1C (stereo not given)
  /	13	/	4	36	/	-1	-0.3	/	/
68. CC1CCN(C2=NC(=O)/C(=C/c3cn(-c4ccccc4)nc3-c3cccc(S(=O)(=O)N(C)C)c3)S2)CC1
  /	6	/	15	45	/	0	4.0	/	/
69. CN(C)C(CNC(=O)CCc1nc2ccccc2s1)c1ccccc1 (stereo not given)
  0.9	-1	13	-9	0	9	-22	0.7	i	-17
70. CCC(c1nnc(SCC(=O)N2CC(=O)Nc3ccccc32)n1Cc1ccccc1)N(C)C (stereo not given)
  /	2	/	1	11	/	-5	?	/	/
71. COc1ccc(-c2nc(=S)[nH][nH]2)cc1
  /	-5	/	-5	-10	/	99*	2.4	/	/

Compound activity from PubChem.

The list is partial; count on the stated rates, not on these rows.
